From PubChem
AID504770: E. coli YBA685 growth inhibition, screen for V. cholerae RctB inhibitors. hit rate 0.27% among 130,000. E. coli YBA685 rctB-dependent plasmid, OD600 growth, 3 h; active compounds read low. AID 504770. z-score (no concentration beside the values);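 active = z-score under -2 on both plates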;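 also: wells of about 30 µL received 100 nL stock; score is relative to mean and SD of the test wells; the first replicate is given; strong numbers were not always called active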
Ba CapD inh: CapD enzyme inhibition. hit rate 0.23% among 140,000. z-score (concentration not given with the values). purified CapD enzyme, fluorescence intensity read-out; active compounds read low; some hits fall short of the stated cut. AID 492967;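 active = z-score under -4 in either of two replicates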;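 also: stock transfer was 100 nL into about 40 µL; score is relative to mean and spread of the plate; one replicate is shown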
An asterisk follows results filed as active; · = not tested or not shown.

SMILES	AID504770	Ba CapD inh
Cc1cc(C(=O)CSc2nnc3n2CCCCC3)c(C)n1C1CCS(=O)(=O)C1 (configuration not stated)	0	·
CCCc1cc(C(=O)N2CCN(C(c3ccccc3)c3ccccc3)CC2)no1	-0.7	-0.53
O=S1(=O)CCN(Cc2ccc(N3CCOCC3)cc2)CC1	0.35	-0.095
COc1ccc2ccccc2c1C1N(Cc2ccccc2)CCN1Cc1ccccc1	·	0.41
CC(=O)N1c2ccccc2C(=O)C1N(C)Cc1ccccc1 (configuration not stated)	0.35	25
O=C(OCC(O)CN1CCN(c2ccccc2)CC1)c1ccccc1 (configuration not stated)	0.5	·
Fc1ccc(-c2nn3c(-c4ccc(Br)cc4)nnc3s2)cc1	·	-0.51
Cc1cn(Cc2ccccc2)c(=O)[nH]c1=O	-0.75	·
Cc1ccc(S(=O)(=O)NC(=O)Nc2c(Cl)cc(C(F)(F)F)cc2Cl)cc1	·	0.43
O=C(O)c1cc(N2C(=O)/C(=C/c3ccc(-c4ccc(Cl)c(Cl)c4)o3)C=C2c2ccccc2)ccc1Cl	·	-0.47
CS(=O)(=O)CS(=O)(=O)Nc1ccc2c(c1)OCCO2	0.85	0.07
CC1C(=O)NN=C1C(=O)N/N=C\c1cccnc1 (configuration not stated)	0.25	·
CSc1nc2ccc(S(=O)(=O)Nc3ccccc3C)cc2s1	1.4	-0.37
CN(Cc1ccccc1)C(=O)CCN1C(=O)c2cccc([N+](=O)[O-])c2C1=O	·	0
Cc1ccc(S(=O)(=O)CCc2nnc(NC(=O)c3ccc(C)c([N+](=O)[O-])c3)s2)cc1C	·	0.29
CCC1=[N+](CC(=O)c2ccccc2)CCn2cccc21	1.5	·
COc1ccc(Cl)cc1S(=O)(=O)Nc1ccc2c(c1)COC2=O	0.25	0.79
COC(=O)C1C(=O)C=C(Nc2ccc(F)cc2)CC1c1ccccc1 (configuration not stated)	-0.1	3.3
N#CCSc1nsc(SCC#N)n1	-1.4	-0.02
N#Cc1cnc(Sc2nc3ccccc3s2)nc1N	0.1	1.6
CC(=O)Nc1ccc(F)cc1Br	-0.35	0.16
CCN(CC)c1ccc(C2CC(C)NC(=S)N2)cc1 (configuration not stated)	·	-0.29
COc1ccc(C2C(C(=O)N3CCCCC3)c3ccccc3C(=O)N2C)cc1 (configuration not stated)	·	-0.4
CCCC(Nc1ccccn1)n1nnc2ccccc21 (configuration not stated)	0.3	1.8
COc1cc(OC)cc(-n2c(=O)c3sccc3n(CC(=O)c3ccc(Cl)cc3)c2=O)c1	-0.5	-0.075

Single values from above:
COc1ccc2ccccc2c1C1N(Cc2ccccc2)CCN1Cc1ccccc1 – Ba CapD inh = 0.41
N#Cc1cnc(Sc2nc3ccccc3s2)nc1N – Ba CapD inh = 1.6
Fc1ccc(-c2nn3c(-c4ccc(Br)cc4)nnc3s2)cc1 – Ba CapD inh = -0.51

Returning to the listing, repeating the five entries before the break.
SMILES	AID504770	Ba CapD inh
CC(=O)Nc1ccc(F)cc1Br	-0.35	0.16
CCN(CC)c1ccc(C2CC(C)NC(=S)N2)cc1 (configuration not stated)	·	-0.29
COc1ccc(C2C(C(=O)N3CCCCC3)c3ccccc3C(=O)N2C)cc1 (configuration not stated)	·	-0.4
CCCC(Nc1ccccn1)n1nnc2ccccc21 (configuration not stated)	0.3	1.8
COc1cc(OC)cc(-n2c(=O)c3sccc3n(CC(=O)c3ccc(Cl)cc3)c2=O)c1	-0.5	-0.075
O=C(Nc1ccccc1N1CCCCC1)C1CCCCC1	-0.65	-0.64
CCn1ccc(C(=O)Oc2ccc(C(C)C)cc2)n1	0.6	0.94
Cc1cnc(C(=O)Nc2ccc(S(=O)(=O)N(C)C)cc2)cn1	-0.45	-0.14
O=C(Nc1ccc(-c2noc(Cc3ccc(Cl)cc3)n2)cc1)c1cccs1	·	0.11
O=C(c1ccccc1)c1cnc(-c2cccnc2)nc1-c1ccccc1	·	-0.69
Cc1ccc(OCc2nnc(SCc3cccc(C#N)c3)n2N)cc1C	2.2	-1.9
N#CC1CC2CC1N(Cc1ccccc1)C2 (configuration not stated)	·	-0.73
Cn1nc(C(F)(F)F)c(C(=O)NCc2ccc(Cl)cc2)c1Cl	·	-0.33
CCN(Cc1ccccc1)C(=O)CSc1nncn2c1cc1occc12	-1.2	-1
Cn1c(CSCC(=O)Nc2ccccc2)nnc1SCC(=O)c1ccccc1	-0.2	-0.44
O=C(Nc1ccccc1C(F)(F)F)c1ccco1	-0.55	-0.34
Cc1ccn2cc(-c3ccc(S(=O)(=O)N4CCCCC4)cc3)nc2c1	·	47
COc1ccc(S(=O)(=O)N(C)Cc2ccc(OC)cc2OC)cc1	0	·
O=C(NCc1ccc(F)cc1)/C(=C/c1cccs1)c1ccccc1	1.8	-0.3
CCN1CCN(C/C=C/c2ccccc2)CC1	-0.35	0.23
Cc1cc(C)c2c(CC(=O)Nc3c(C(=O)Nc4cccc(Cl)c4)oc4ccccc34)coc2c1	-0.95	7.3
NC(N)=NC(N)=NCc1ccco1	·	-0.12
COc1ccc(C2c3sc(=O)[nH]c3SC3C(=O)N(c4ccccc4)C(=O)C32)cc1 (configuration not stated)	0.85	1
Cc1cc(C)cc(C(=O)Nc2ccc3[nH]c(=O)[nH]c3c2)c1	-0.95	1.5
Cc1sc2c(c1C)C(=O)/C(=C\Nc1cccnc1)S(=O)(=O)N2C	0.4	-0.025
O=C(Cn1nc(-c2ccc(F)cc2)oc1=O)OCc1nnc(-c2cc3c(s2)CCCC3)o1	-0.1	·
COC(=O)c1ccc(CSc2nc3ccc(C)cc3[nH]2)o1	0.3	·
COc1ccccc1/C=C1/C(=O)Nc2ccccc21	·	-2.2
CCOc1ccc(CC(=O)NCC(c2ccc(OC)cc2)N2CCOCC2)cc1 (configuration not stated)	-0.85	·
CC1(C)CC(=O)C=C(NCC2NCCc3ccccc32)C1 (configuration not stated)	1.9	0.24
Continuation:
SMILES	AID504770	Ba CapD inh
CSc1ccc(/C=C/C(=O)Nc2ccc(-n3cnnn3)cc2)cc1	-0.7	·
Cc1cccc(CCNS(=O)(=O)c2ccc3c(c2)CCN3C(=O)C2CCC2)c1	0.75	6
O=C(c1ccc(N2C(=O)C3CC=CCC3C2=O)cc1)c1ccc(N2C(=O)C3CC=CCC3C2=O)cc1 (configuration not stated)	·	-0.16
CC(=O)Nc1ccc(C(=O)COc2ccccc2O)cc1	0.1	-0.84
O=C1CC2(CCCC2)C(=O)N1c1cc(C(F)(F)F)cc(C(F)(F)F)c1	-0.25	0.3
CCC1=NN(C(=O)c2cccc(C)c2O)C(O)(c2ccc(Br)cc2)C1 (configuration not stated)	·	-2.2
COC(=O)c1cccc(Oc2ncnc3c2oc2ccccc23)c1	-0.05	·
COc1ccc(/C=C2/N=C(c3ccc([N+](=O)[O-])cc3)OC2=O)cc1Br	·	-0.19
CCNC(=O)CC1C(=O)N(c2ccccc2)C(=O)N1CCOC (configuration not stated)	-0.65	1.6
Cc1cc(C)nc(OC(Cc2ccncn2)c2ccc(C(F)(F)F)cc2)n1 (configuration not stated)	·	-0.46
Cc1ccc(S(=O)(=O)Cn2nnnc2CN2CCC(Cc3ccccc3)CC2)cc1	-0.65	·
N#C/C(=C\c1ccc(O)cc1)c1nc2ccccc2[nH]1	·	-2.1
N#CC1(NC(=O)CN2CCCCC2c2nc3ccccc3s2)CCCC1 (configuration not stated)	-0.6	·
Cc1cc(=O)[nH]c2[nH]n(-c3ccccc3)c(=O)c12	-0.8	-3.3
CC(C)NC(=O)c1ccccc1N(Cc1ccccc1)S(C)(=O)=O	-0.4	·
CCS(=O)(=O)c1ccc2oc(SCC(=O)N3CC(C)OC(C)C3)nc2c1 (configuration not stated)	-1.1	·
CCN1C(=O)/C(=C2/Sc3ccc(OC)cc3N2CC)SC1=Nc1ccc2c(c1)OCCO2	0.35	·
O=C(NCCSCc1ccco1)C1CCCCC1	·	0.005
COc1ccc(C2CC(=O)C3=C(C2)Nc2ccccc2NC3c2c[nH]c3ccccc23)cc1OC (configuration not stated)	·	-1.3
CCOc1cc(C2C(C#N)=C(N)Oc3n[nH]c(-c4cc(OC)c(OC)c(OC)c4)c32)cc([N+](=O)[O-])c1O (configuration not stated)	·	-0.42
CCN(CC)c1ccc(NC(=O)c2ccc(Cl)cc2)cc1	2.5	-0.13
COCCNC(=O)c1ccc2nc3[nH]c4ccccc4c3nc2c1	·	0.075
CC(Sc1nnc(N)s1)C(=O)Nc1ccc(N2CCOCC2)cc1 (configuration not stated)	0	·
CNc1ccc(-c2c(C#N)c(C#N)c(N)n2-c2ccc(C)cc2)cc1	-0.5	32
COc1cccc(N2CCN(C(=O)c3cnn4c(C(F)(F)F)cc(-c5ccc(OC)c(OC)c5)nc34)CC2)c1	·	-0.96

The last 2 entries of the section before lead into the next:
SMILES	AID504770	Ba CapD inh
CNc1ccc(-c2c(C#N)c(C#N)c(N)n2-c2ccc(C)cc2)cc1	-0.5	32
COc1cccc(N2CCN(C(=O)c3cnn4c(C(F)(F)F)cc(-c5ccc(OC)c(OC)c5)nc34)CC2)c1	·	-0.96
COC(=O)CCC(=O)Nc1ccc(Oc2ccccc2)cc1	-1.1	·
OCC1OC(Oc2cccc(O)c2CCCc2ccc(O)cc2)C(O)C(O)C1O (configuration not stated)	-0.35	-0.17
FC(F)(F)c1cccc(NCCNc2nccc(C(F)(F)F)n2)n1	-0.05	0.39
CC1CCCCC1NC(=O)c1cccc(N2CCCC2=O)c1 (configuration not stated)	-1.7	-0.27
CCOC(=O)Cc1n[nH]c(=S)n1C1CCCCC1	1.5	·
COc1cc(NC(=O)c2sc3ncn(CC(=O)Nc4cccc(C(F)(F)F)c4)c(=O)c3c2C)cc(OC)c1OC	·	-0.45
CC(=O)Nc1ccc(S(=O)(=O)N(C)c2ccc(OCC(=O)OCC(=O)N3CCCCC3)cc2)cc1	2.3	·
O=C(Cc1ccccc1)Nc1nnc(-c2ccccc2)o1	-0.4	-0.13
Cc1ccc(F)cc1NC(=O)Cn1c2ccccc2c(=O)c2cc(Cl)ccc21	·	-0.03
CCCn1c(NC(=O)Cc2coc3cc(OC)ccc23)nc2ccccc21	-1.2	·
COc1ccc(C(c2nnnn2C(c2ccccc2)c2ccccc2)N2CCOCC2)cc1 (configuration not stated)	·	0.4
O=C(O)/C=C/C(=O)Nc1ccc(C(F)(F)F)cc1	-0.55	0.25
COCCn1c(SCC(=O)Nc2ccc3c(c2)OCO3)nnc1-c1c[nH]c2ccccc12	-0.25	0.79
N#CCOC(=O)/C(=C\c1cccs1)c1cccs1	-0.1	·
CCCSc1ncccc1C(=O)Nc1ccc(Oc2ccc(Cl)cc2)cc1	·	-0.27
CC1(C)CC(=O)C(C=NCCc2ccc(S(N)(=O)=O)cc2)=C(O)C1	·	-0.36
CNc1ccccc1C(=O)OCC(=O)c1cccs1	0.65	·
CCN1CCN(Cc2ccccc2Cl)CC1	-0.05	0.28
CCOC(=O)c1c(/C=C/N(C)C)oc2ccc(O)cc12	-0.95	-0.17
C=CCn1c(C)cc(C(=O)CSc2nnc(-c3cccs3)o2)c1C	0.35	·
Cc1ccn2c(/C=N/OCc3cccc(F)c3)c(-c3ccc(Cl)cc3)nc2c1	·	1.7
CCCN(C(=O)c1cc2cc3ccc(C)cc3nc2o1)c1cccc(C)c1	0.15	0.44
Nc1ccc(-c2nc3cc(N)ccc3o2)cc1	0	63
CSC(=Nc1cccc(SC)c1)NC#N	·	0.15
CC(=O)Nc1ccc(S(=O)(=O)NCC2CCCO2)cc1 (configuration not stated)	-1.4	0.05

Some of the entries so far, field by field:
COc1ccc(C(c2nnnn2C(c2ccccc2)c2ccccc2)N2CCOCC2)cc1 (configuration not stated)
  AID504770: · | Ba CapD inh: 0.4
O=C(O)/C=C/C(=O)Nc1ccc(C(F)(F)F)cc1
  AID504770: -0.55 | Ba CapD inh: 0.25

Next section.
SMILES	AID504770	Ba CapD inh
COc1ccc2c(c1OC)C(=O)OC2Nc1ncn[nH]1 (configuration not stated)	-0.55	·
Nc1nc(=S)c2ncn([C@@H]3O[C@H](CO)[C@@H](O)[C@H]3O)c2[nH]1	·	25
CC1(C)CC(=O)C(N=Nc2ccc3c(c2)OCCO3)=C(O)C1	0	·
CC12c3ccccc3C(c3ccccc31)C1C(=O)N(c3ccc(Br)cc3[N+](=O)[O-])C(=O)C12 (configuration not stated)	·	-0.8
c1ccc(C(c2ccccc2)c2noc(C3CCNCC3)n2)cc1	·	-0.03
CC1=C/C(=N/NC(=O)Cn2cnc3ccccc32)CC(C)(C)C1	-0.25	·
Cc1cc(C)n(Cc2ccccc2)n1	-0.3	0.72
Cc1onc(-c2ccccc2Cl)c1C(=O)Nc1ccc2c(c1)OCO2	·	-0.26
CC(=O)OC1CCC2(C)C(=CCC3C4CCC(=O)C4(C)CCC32)C1 (configuration not stated)	-0.7	-0.27
CCOCCOC(=O)C1=C(C)NC2=C(C(=O)CC(c3ccccc3)C2)C1c1cc(OC)ccc1OC (configuration not stated)	·	5.3
O=C(Cc1c[nH]c2ccccc12)NC1(C(=O)NC2CCCCC2)CCCCC1	0.2	-0.16
N=C1SC2CS(=O)(=O)CC2N1/N=C/c1ccccc1 (configuration not stated)	0.3	·
O=C(O)CSCCOc1ccccc1	·	-0.4
O=C(CSc1cccc[n+]1[O-])NCc1ccc(Cl)cc1	0.35	-0.58
COc1ccccc1Nc1c2c(nc3ccc(NC(=O)Cc4cccs4)cc13)CCCC2	-1.7	0.64
NCC(c1ccco1)c1c[nH]c2ccccc12 (configuration not stated)	0.2	-1
COc1ccc2nc(SC(=O)c3ccccc3)nc(C)c2c1	-0.3	9.9
CCC(C)NC(=O)c1cc(-c2ccccc2)n[nH]1 (configuration not stated)	-0.6	-0.14
O=C1CCC=CN1c1cn[nH]c1-c1ccc(Cl)cc1	-1.1	0.27
Cc1nn(-c2ccccc2)nc1C(=O)c1c(C(C)(C)C)[nH]n(-c2ccccc2)c1=O	-0.75	0.5
CCCCN(C(=S)Nc1cccc(C)c1)C1CCN(C(C)=O)CC1	-0.3	-0.05
COc1cc(C2C3=C(CC(C)(C)CC3=O)Nc3ccccc3N2C(=O)C(F)(F)F)cc(OC)c1OC (configuration not stated)	·	-0.69
CCOC(=O)N/N=C/c1cc(Br)ccc1O	·	-0.01

These rows are one share of the data, so the mix of outcomes need not match the whole.
